KCNQ2 inh = KCNQ2 channel blockers in CHO-K1 cells – cell-based, FluxOR thallium flux, B-score, primary screen (AID 2156); B-score at 10 µM; 310,000 compounds, 1.1% hits; 20 min; active compounds read low; only compounds with negative scores are shown here; some inactives read as strong as hits; O88943;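 active means fluorescence ratio B-score at most minus 3 library SDs, with starting brightness B-score within 2 library SDs, cut at about -5.5 in these data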
Target sequence (O88943 whole entry, looked up): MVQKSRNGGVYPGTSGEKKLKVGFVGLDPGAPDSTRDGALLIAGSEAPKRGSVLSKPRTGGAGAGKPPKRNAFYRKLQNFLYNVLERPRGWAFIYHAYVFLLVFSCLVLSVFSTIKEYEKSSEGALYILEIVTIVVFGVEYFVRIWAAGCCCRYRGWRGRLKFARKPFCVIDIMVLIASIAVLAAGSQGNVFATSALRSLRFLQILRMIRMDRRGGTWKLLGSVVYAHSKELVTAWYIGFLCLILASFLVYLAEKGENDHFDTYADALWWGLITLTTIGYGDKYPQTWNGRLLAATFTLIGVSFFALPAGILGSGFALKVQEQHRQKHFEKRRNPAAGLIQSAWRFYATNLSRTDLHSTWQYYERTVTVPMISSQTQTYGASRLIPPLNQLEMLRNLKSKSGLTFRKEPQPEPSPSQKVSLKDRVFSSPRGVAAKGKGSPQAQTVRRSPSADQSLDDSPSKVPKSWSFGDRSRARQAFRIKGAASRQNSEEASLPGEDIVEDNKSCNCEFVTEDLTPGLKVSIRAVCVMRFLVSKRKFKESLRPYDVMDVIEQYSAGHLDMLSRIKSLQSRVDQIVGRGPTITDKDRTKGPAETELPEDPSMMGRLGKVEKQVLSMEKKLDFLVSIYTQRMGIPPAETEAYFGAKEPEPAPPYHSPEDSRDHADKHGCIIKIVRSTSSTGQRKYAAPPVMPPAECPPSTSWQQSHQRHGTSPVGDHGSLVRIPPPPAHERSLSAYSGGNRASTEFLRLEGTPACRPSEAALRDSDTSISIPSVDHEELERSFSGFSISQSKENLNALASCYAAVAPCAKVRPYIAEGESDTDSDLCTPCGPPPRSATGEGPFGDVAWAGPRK
KCNQ2 inh baseline = recorded beside KCNQ2 inh, whose call it bears; B-score; measured here: initial fluorescence intensity artifact check;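 brightness before thallium and not channel activity; 0 = typical well and far values either way flag optical interference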
* marks the source's active call; other numbers are inactive results; i = inactive. The list is partial. The share of hits here may be higher or lower than overall.

No. | structure | KCNQ2 inh | KCNQ2 inh baseline
1 | CCCCN1C2=NC(c3ccccc3)CN2c2ccccc21 (stereo unspecified) | i | -0.52
2 | COC(=O)c1ccc(Cn2cnc3ccccc3c2=O)cc1 | i | -1
3 | COC(=O)c1ccc(OC)c(OC2CCCC2)c1 | i | 0.07
4 | CC(Cc1ccc(O)c(O)c1)C(C)Cc1ccc(O)c(O)c1 (stereo unspecified) | i | 0.33
5 | CCc1nc(SCC(=O)N2c3ccccc3CC2C)c2c(C)c(C)sc2n1 (stereo unspecified) | -6.7* | 1.4*
6 | CN(C)CCNC(=O)Cn1nc(C(F)F)cc1C1CC1 | i | 0.73
7 | COC(=O)CN1C(=S)N(Cc2ccccc2)C(=O)C1CC(=O)Nc1ccc(OC)cc1 (stereo unspecified) | i | 0.82
8 | CC(C)(C)OC(=O)NCCCCCc1nnc(SCc2ccc(F)cc2)o1 | i | -1.9
9 | CCOc1ccc(NC(=O)CN(C)CC(=O)Nc2ccccc2C#N)cc1OCC | i | -2.1
10 | COc1cccc(-c2cc(C(=O)Nc3ccccc3SC)no2)c1 | i | 1.3
11 | COC(=O)c1ccc(NC(=O)COc2ccc(C3C(C#N)=C(N)Oc4c3ccc3ccccc43)cc2OC)cc1 (stereo unspecified) | i | -0.03
12 | O=c1cc(-c2c(O)c3ccccc3n(Cc3ccccc3)c2=O)[nH][nH]1 | -6.8* | -0.11*

Carrying on:
No. | structure | KCNQ2 inh | KCNQ2 inh baseline
13 | CCOc1ccc(S(=O)(=O)Oc2ccc3ccccc3c2)cc1 | i | 0.28
14 | COc1cc(/C=N/N=C(N)N)ccc1OCc1ccccc1Cl | -10* | -1.2*
15 | CCCn1c(N)c(Sc2ccc(C)cc2)c(=O)n(CCC)c1=O | i | 1.7
16 | Cc1ccc(/C=N/N2C(=S)SC(C)(C)C2N(O)C(=O)Nc2ccc([N+](=O)[O-])cc2)cc1 (stereo unspecified) | i | 0.18
17 | COc1ccc(C)cc1N(CC(=O)N1CCCC1)S(=O)(=O)c1ccccc1 | i | -0.38
18 | CCN(CC)CCN(C(=O)CCS(=O)(=O)c1ccccc1)c1nc2c(C)cc(C)cc2s1 | i | 0.2
19 | CC(=O)NC1=NN(C(C)=O)C(C)(c2cccc([N+](=O)[O-])c2)S1 (stereo unspecified) | i | -0.12
20 | O=C(NCC1CCCCN1)c1cc(OCC(F)(F)F)ccc1OCC(F)(F)F (stereo unspecified) | i | 1.7
21 | Cc1ccc(CNc2ncc(-c3ccc4c(c3)OCO4)n2C)cc1 | -6* | 0.51*
22 | O=[N+]([O-])c1ccc(Cn2cc(-c3cccc(C(F)(F)F)c3)nn2)cc1 | i | -0.59
23 | CCC(c1nnnn1CCc1ccccc1)N(Cc1ccco1)Cc1cc2cccc(C)c2[nH]c1=O (stereo unspecified) | i | -2.9
24 | C=CCOc1cccc(C2/C(=C(\O)c3ccc(F)cc3)C(=O)C(=O)N2CCN(C)C)c1 (stereo unspecified) | i | 0.16

More results follow.
No. | structure | KCNQ2 inh | KCNQ2 inh baseline
25 | COc1ccc(OC)c(NC(=O)[C@@]2(CC(=O)O)CC(/C=C/c3ccccc3)=NO2)c1 | i | -0.03
26 | COc1cccc(CNC(=O)CCC2CCCN(C(=O)c3cc(C)on3)C2)c1 (stereo unspecified) | i | 1.5
27 | Cc1ccc(S[C@@H](CCN2CC[C@H](O)CCC2=O)c2ccccc2)cc1 | i | -3.3
28 | CCS(=O)(=O)N1Cc2ccccc2CC1C(=O)N1CCN(c2cccc(C)c2C)CC1 (stereo unspecified) | i | 1.2
29 | CN(Cc1ccon1)C(=O)CC1C(=O)NCCN1CC1CCCCC1 (stereo unspecified) | i | 1.3
30 | Cc1ccccc1OCC(=O)NNC(=O)Cc1ccc(S(=O)(=O)N2CCOCC2)s1 | i | 0.67
31 | CCOC(=O)c1cc(=O)c2ccc(OCc3ccccc3)cc2o1 | i | 0.44
32 | Cn1c(CSc2nnc(SCc3ccccc3)s2)nc2ccccc21 | i | -0.65
33 | CCc1noc(C)c1C(=O)Nc1cc(Cl)ccc1N1CCCC1 | i | -0.69
34 | COc1ccccc1C1C(C(C)=O)=C(C)N=c2s/c(=C\c3cc(OC)c(OC)c(OC)c3)c(=O)n21 (stereo unspecified) | i | -0.09
35 | N#CCc1ccc(NC(=O)Cn2c(=O)oc3ccccc32)cc1 | i | 0.18
36 | COc1ccc(Cl)cc1NC(=O)CN(C(=O)c1ccco1)C1CCCCC1 | i | 0.04

(more compounds)
No. | structure | KCNQ2 inh | KCNQ2 inh baseline
37 | CCN(CCO)C(=O)c1ccc2oc(Cc3ccc(Cl)cc3)nc2c1 | i | -1.8
38 | Cc1ccccc1CSCC(=O)NNC(=S)NCC1CCCO1 (stereo unspecified) | i | 0.67
39 | O=C(NCc1ccccc1F)C(c1ccccc1)c1ccccc1 | i | 0.64
40 | Cc1cccc(N=Nc2c(O)[nH]c3ccc(F)cc23)c1 | i | 0.69
41 | O=C(Nc1ccc2c(c1)OCO2)c1ccccc1SCC(=O)N1CCCC1 | i | 0.98
42 | CN(C(=O)c1nn(C)c2c1CSc1ccccc1-2)c1ccc(F)cc1 | -6.5* | -0.03*
43 | O=C(Nc1ccc(N2CCN(C(=O)c3ccco3)CC2)c(Cl)c1)c1cc2ccccc2o1 | i | -1.3
44 | O=C(O)CCCN1C(=O)/C(=C\c2ccccc2OCc2ccccc2)SC1=S | i | 0.01
45 | CCCSc1nnc(N)s1 | i | -0.06
46 | CCN(CC)S(=O)(=O)c1cc(NC(=O)C2Cc3ccccc3C(=O)O2)ccc1C (stereo unspecified) | i | 1.7
47 | O=C(N/N=C/c1cn(-c2ccccc2)nc1-c1cccnc1)c1ccccc1 | i | -1.2
48 | COc1ccc(S(=O)(=O)N2CCOCC2)cc1N(C)S(=O)(=O)c1ccc(C)cc1 | i | 3

(next part)
No. | structure | KCNQ2 inh | KCNQ2 inh baseline
49 | COc1ccc(CNC(=O)CN(Cc2ccco2)C(=O)CNS(=O)(=O)c2ccc(F)cc2)cc1 | i | 0.08
50 | Cc1noc(C)c1COc1cccc(C(=O)OC(C)C#N)c1 (stereo unspecified) | i | 1.3
51 | Cc1ccc(-n2nc3c(=O)n(CC(=O)NCCc4ccco4)nc(C)c3c2C)cc1 | i | 1.7
52 | COc1ccc(Oc2ccc(N/C=C3\CCCC3=O)cc2)cc1 | i | -0.27
53 | COc1c(O)cc2oc(-c3ccc(O)c(O)c3)cc(=O)c2c1O | i | 1.5
54 | COc1cc(C)c(S(=O)(=O)NCc2ccc3c(c2)OCO3)cc1C | i | 2.9
55 | Cc1ccc(CSCCNC(=O)c2cccc([N+](=O)[O-])c2)cc1 | i | -4.2
56 | Nc1nc(SCc2ccc(Br)cc2)n[nH]1 | i | 2.6
57 | Cc1[nH]c2ccccc2c1C(=O)COC(=O)C1CC(=O)N(Cc2ccccc2)C1 (stereo unspecified) | i | -0.31
58 | COc1ccc(N2CCN(C(=O)c3oc4ccccc4c3NC(=O)Cc3ccc(OC)c(OC)c3)CC2)cc1 | i | -1.2
59 | Cc1ccc(NC(=O)C(C)OC(=O)Cn2[nH]c(=O)c3ccccc3c2=O)cc1 (stereo unspecified) | i | -1.9
60 | CCc1nc2ccccc2c(C(=O)Oc2cccc3cccnc23)c1C | i | -1.3

Going on with the list:
No. | structure | KCNQ2 inh | KCNQ2 inh baseline
61 | CC1=Nc2cc(C(=O)N3CCCCC3)ccc2Sc2ccc(C)cc21 | i | -1.6
62 | CCOC(=O)N1CCN(S(=O)(=O)c2ccc(C)c([N+](=O)[O-])c2)CC1 | i | 1.1
63 | CC1(C)Cc2c(c(-c3ccccc3)[nH]c(=O)c2C#N)CS1 | i | -0.67
64 | Cc1cc(N(C)C)c(C#N)c(=O)[nH]1 | i | 0.87
65 | COc1ccccc1/C=C1\SC(=O)N(CC(=O)NCCCn2ccnc2)C1=O | i | 1.6
66 | COc1ccc(C(=O)C2CCCN(C(=O)CCc3ccccn3)C2)c(C)c1 (stereo unspecified) | i | -1.5
67 | COc1ccc(C(=O)/C=C/c2cccc(OCc3ccccc3)c2)cc1CSCC(=O)O | i | 1.9
68 | CCN(CC)NC(=S)Nc1ccccc1 | i | 0.35
69 | COc1cc(NC(=O)CCc2nnc3ccc(N4CCC(C)CC4)nn23)cc(OC)c1 | i | -0.63
70 | CCOC(=O)C1CCN(C(c2cc3cc(C)cc(C)c3[nH]c2=O)c2nnnn2C2CCCCC2)CC1 (stereo unspecified) | i | 0.22
71 | CCOc1ccc(NC(=S)Nc2ccccc2C2(C)CC2)cc1 | i | -0.58
72 | CS(=O)(=O)NCCOc1ccc(S(=O)(=O)NCCOc2ccccc2)cc1 | i | -0.94

(listing goes on)
No. | structure | KCNQ2 inh | KCNQ2 inh baseline
73 | CCOC(=O)c1c(NC(=S)N2CCN(C)CC2)sc2c1CCN(C(=O)OCC)C2 | i | 0.5
74 | Cc1ccc(-n2ncc3c2CC(C)(C)CC3NC(=O)c2cc[n+]([O-])cc2)cc1 (stereo unspecified) | i | 1.4
75 | COc1ccc(NC(=S)NNC(=O)CCn2cc([N+](=O)[O-])cn2)cc1 | i | 0.18
76 | COc1ccc(Cl)cc1N1CC(C(=O)Nc2nccs2)CC1=O (stereo unspecified) | i | -0.07
77 | O=C(C1CCCN(S(=O)(=O)c2cccc3cccnc23)C1)N1CCN(c2ccc(F)cc2)CC1 (stereo unspecified) | i | -0.73
78 | C[C@H](NC(N)=O)C(=O)Nc1ccc2c(c1)OCO2 | i | -0.32
79 | Cc1c(C(=O)N2CCc3ccccc3C2)oc2ccc(Br)cc12 | i | -0.77
80 | Cc1ccccc1CNC(=O)CCn1nc(C)c2c(C)n(-c3ccccc3)nc2c1=O | i | -0.53
81 | COc1ccc2c(c1)nc(SCC(=O)c1cccs1)n2C | i | -1.9
82 | CN1CCN(CCCNC(=O)c2ccc(/C=C3\Oc4ccccc4N(Cc4ccccc4F)C3=O)cc2)CC1 | i | -1.9
83 | CC(C)CC1Nc2ncnc(N3CCCCC3)c2N(Cc2ccc(Br)cc2)C1=O (stereo unspecified) | i | -0.06
84 | O=C(NCc1cccc(Br)c1)C1CC2Cn3c(nc4ccccc43)C2N1Cc1ccccc1 (stereo unspecified) | i | 0.58

Gathered by group: the entries above containing a CF3 group.
No. | structure | KCNQ2 inh | KCNQ2 inh baseline
20 | O=C(NCC1CCCCN1)c1cc(OCC(F)(F)F)ccc1OCC(F)(F)F (stereo unspecified) | i | 1.7
22 | O=[N+]([O-])c1ccc(Cn2cc(-c3cccc(C(F)(F)F)c3)nn2)cc1 | i | -0.59

Part of the list above, set out differently:
#77 O=C(C1CCCN(S(=O)(=O)c2cccc3cccnc23)C1)N1CCN(c2ccc(F)cc2)CC1 (stereo unspecified)
#78 C[C@H](NC(N)=O)C(=O)Nc1ccc2c(c1)OCO2
#79 Cc1c(C(=O)N2CCc3ccccc3C2)oc2ccc(Br)cc12
#80 Cc1ccccc1CNC(=O)CCn1nc(C)c2c(C)n(-c3ccccc3)nc2c1=O
#81 COc1ccc2c(c1)nc(SCC(=O)c1cccs1)n2C

assay / entry	77	78	79	80	81
KCNQ2 inh	i	i	i	i	i
KCNQ2 inh baseline	-0.73	-0.32	-0.77	-0.53	-1.9

Other structures follow.
No. | structure | KCNQ2 inh | KCNQ2 inh baseline
85 | N#CC(C#N)=Cc1cc2ccccc2nc1N1CCCCC1 | i | 2
86 | O=C(CN1CCC(NC(=O)Cc2ccccc2)CC1)Nc1cccc2ccccc12 | i | 2.5
87 | O=C(NCCCN1CCOCC1)C(=O)NCC1OCCN1S(=O)(=O)c1ccc(Br)cc1 (stereo unspecified) | i | -1.9
88 | Cc1cc(C)nc(SC2CC(=O)N(c3ccc(C)c(C)c3)C2=O)n1 (stereo unspecified) | i | 0.06
89 | Cc1csc2ncc(C(=O)NCc3ccccc3Cl)c(=O)n12 | i | 0.14
90 | Cc1cccc2c1-c1sc(C(=O)N3CCc4ccccc4C3)cc1CO2 | -5.6* | 0.14*
91 | C=CCn1c(COc2ccc(Cl)cc2)nnc1SCC(=O)N1CC(=O)Nc2ccccc21 | i | 1
92 | Cc1ccc(-c2nnn(CC(=O)N(c3ccccc3)C(C(=O)NC3CCCC3)c3ccco3)n2)o1 (stereo unspecified) | i | 0.43
93 | O=C(O)c1ccccc1C(=O)Nc1ccc(-n2ccc(C(F)(F)F)n2)cc1 | i | 0.56
94 | CC(C)N(Cc1nc(-c2ccccc2)no1)C(=O)CCCN1C(=O)c2ccccc2C1=O | i | 0.05
95 | C=CCC1C=CCC(CC=C)N1C(=O)c1ccccc1[N+](=O)[O-] (stereo unspecified) | i | -1
96 | O=C(Nc1cccc(-c2cccc(Cl)c2)c1)C1CCN(CC2CCOC2)CC1 (stereo unspecified) | i | -0.03

(more compounds)
No. | structure | KCNQ2 inh | KCNQ2 inh baseline
97 | COCCCN1C(=O)C(=O)/C(=C(/O)c2ccc(OCC(C)C)cc2)C1c1cccnc1 (stereo unspecified) | i | -1.7
98 | O=C(c1cncc(Br)c1)N1CCN(c2ccc(N3CCOCC3)nn2)CC1 | i | 0.94
99 | Cc1onc(-c2ccccc2)c1C(=O)Nc1cccc(OC(C)C)c1 | i | -1
100 | CC(=O)Nc1ccc(/C=N/Nc2ccc(C(=O)c3c(C)cc4ccccn34)cc2[N+](=O)[O-])cc1 | i | 0.48
101 | Cc1cccc(N2CCN(C(=O)c3cc(C)oc3C)CC2C)c1 (stereo unspecified) | i | -0.33
102 | CCOC(=O)CNC(=O)Cn1c(C)cc2ccccc2c1=O | i | 3
103 | CC(=O)C1=C(C)Nc2ncnn2C1c1ccc(Cl)cc1 (stereo unspecified) | i | 0.57
104 | COC(=O)c1cc(CSc2ncnc3sccc23)oc1C | i | 0.09
105 | c1ccc(-c2csc(N3CCSCC3)n2)cc1 | i | -0.91
106 | CN(C(=O)c1ccno1)c1nnc(-c2ccccn2)s1 | i | -1.2
107 | CCOP(=O)(c1ccccc1)c1nc(-c2ccc(F)cc2)oc1N1CCCCC1 (stereo unspecified) | i | 1.4
108 | Nc1nc(-c2ccccc2)c(-c2ccccc2)o1 | i | -0.52
109 | CCN(CC)c1ccc(/C=N\NC(=O)c2cccc3cc[nH]c23)cc1 | i | 0.24
110 | Cc1cc(C)c2c(=O)n(CC(=O)NCCCN3CCN(c4ccccc4F)CC3)sc2n1 | -9.9* | -1.1*
111 | COCCCNC(=O)CC1C(=O)N(Cc2ccccc2)C(C)c2nc3ccccc3n21 (stereo unspecified) | i | 0.23
